NPYLR7 ag = mosquito NPYLR7 agonism | HEK293T NPYLR7/Galpha15, GCaMP6s calcium fluorescence | activation, % at 10 µM | 270,000 tested, 0.15% active | AID 1259423; in the data active = activation above about 40%;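 note: 0% = vehicle and 100% = reference agonist at the receptor; some compounds past the cut are filed as inactive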
NPYLR7 ag max-min = also measured in NPYLR7 ag; calls as there; activation, %; measured here: Max-Min RFU normalised activation; some inactives read as strong as hits;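 span of the calcium signal over five minutes; 0% = vehicle and 100% = native peptide agonist; compound fluorescence can raise it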
* hit, by the source's call; & = joins results of further samples. This is a subset, so the mix of outcomes need not match the whole.

SMILES | NPYLR7 ag | NPYLR7 ag max-min
O=C(NC1CCCN(CC2CCCCC2)C1)c1ccc2scnc2c1 (configuration not stated) | 19 | 8
Cc1ccnc(C(=O)Nc2ccc(Nc3cc(N4CCCC4)nc(C)n3)cc2)n1 | 2 | 0
CCOC(=O)C(c1ccc(OC)c(OC)c1)C1C=CC(NC(=O)c2ccc(F)cc2C(F)(F)F)C1 (configuration not stated) | -4 | -17
CC1CCCCC1NC(=O)Nc1ccccc1-n1cccn1 (configuration not stated) | 11 | 3
Cc1cc(NC(=O)COC(=O)C2Oc3ccccc3OC2C)no1 (configuration not stated) | 2 | 0
CCOc1ccc(C2NC(=O)N(C)C3=C2C(=O)N(C2CC2)C3)cc1 (configuration not stated) | 14 | 24
O=C1OC(c2ccc3c(c2)OCO3)=NC1=Cc1cc2ccccc2nc1N1CCOCC1 | -2 | -3
CCCCNS(=O)(=O)c1ccc2c(c1)nc(CCC)n2CCCC | -11 | -16
Cc1cnn(CC2CCN(S(=O)(=O)NCc3ccccc3)CC2)c1 | 3 | 0
COc1ccc(S(=O)(=O)Oc2ccccc2CN(CCN(C)C)C(=O)NC(C)C)cc1 | 2 | 15
COc1cc(/C=C/[C@@H]2C[C@H]3CN(Cc4cccc(Cl)c4)C(=O)[C@]34CCCN24)ccc1O | 1 | -4
CCOC(=O)NNC(=O)c1ccc(=O)n(Cc2ccc(Cl)cc2)c1 | -12 | -16
COCCNC(=O)Cn1cnc2scc(-c3ccc(OC)cc3)c2c1=O | -10 | -11
Cc1ccc(N2C(=O)CC(NCc3cccc(C(F)(F)F)c3)C2=O)cc1 (configuration not stated) | -3 | -11
COc1ccc(C)cc1N1CCN(C(=O)CCc2ccccc2)C(C)C1=O (configuration not stated) | -14 | -13
Cc1cc(C)c(C2NCCCn3cccc32)cc1C (configuration not stated) | 28 | 35
O=C(O)c1csc(-c2cccc(C(F)(F)F)c2)n1 | 5 | 3
Cn1cc(CN2CCCC(CCc3ccccc3C(F)(F)F)C2)cn1 (configuration not stated) | 13 | 12
NC(=O)c1c(NC(=O)c2cc([N+](=O)[O-])cc([N+](=O)[O-])c2)sc2c1CCCC2 | -3 | -8
COc1ccc(C(C)=O)cc1CN1C(=O)C(C)Sc2ccccc21 (configuration not stated) | 7 | 3

The closing three compounds of the part before are carried over, then new ones follow:
SMILES | NPYLR7 ag | NPYLR7 ag max-min
Cn1cc(CN2CCCC(CCc3ccccc3C(F)(F)F)C2)cn1 (configuration not stated) | 13 | 12
NC(=O)c1c(NC(=O)c2cc([N+](=O)[O-])cc([N+](=O)[O-])c2)sc2c1CCCC2 | -3 | -8
COc1ccc(C(C)=O)cc1CN1C(=O)C(C)Sc2ccccc21 (configuration not stated) | 7 | 3
C=C(C)CN=c1scc(C)n1N=Cc1sccc1C | -9 | -12
COc1ccccc1OC1CN(Cc2cccc3c2OCO3)C1 | 4 | 4
COC(=O)Cc1nnn(CC(=O)NC(C)(C#N)C(C)C)n1 (configuration not stated) | 8 | 5
CN(C)c1ccc(NS(=O)(=O)c2ccc(Cl)c(C#N)c2)cn1 | 8 | 6
Cc1cc(C)n2c(CNC(C)c3cccc(Cl)c3)cnc2n1 (configuration not stated) | 3 | 1
CCOC(=O)c1c[nH]c2ccc(C(F)(F)F)cc2c1=O | 19 | 13
Cn1nnc2c(SCc3cccnc3)ncnc21 | 2 | -1
OC1CCN(c2ccnc(N3CCCC(OCc4ccccn4)C3)n2)CC1 (configuration not stated) | -5 | -5
CN1CCCn2c1nc1c2c(=O)n(Cc2ccc(F)cc2)c(=O)n1C | 8 | 0
Cc1nc2n(n1)CC(Nc1ccc3nnc(-c4ccccc4)n3n1)CC2 (configuration not stated) | 2 | 9
Cc1cc(C)nc(SCc2cc(=O)c(OC(=O)c3cc4ccccc4o3)co2)n1 | -10 | -4
CCN(CC)c1ccc(C(=O)OCC(=O)c2ccccc2)cc1 | -3 | -3
C(#CCN1CCN(CC#CCOCc2ccccc2)CC1)COCc1ccccc1 | -3 | -5
Cc1cc(NN=C2CC(C)CC(C)(C)C2)nc2ccccc12 (configuration not stated) | 1 | 7
CN(Cc1cccnc1)Cc1cn(Cc2ccccc2)nc1-c1cc2ccccc2o1 | -1 | -5
N#Cc1ccc(CS(=O)(=O)CC(=O)N(Cc2ccc(F)cc2)C2CC2)cc1 | 6 | 0
CN(C(=O)C1CC(c2ccccc2)=NO1)c1ccc(C(N)=O)cc1 (configuration not stated) | -32 | -30
O=C1NCCN1C1CCCN(c2ccc3ccc(F)cc3n2)C1 (configuration not stated) | 0&-3 | -1&-2
Cn1c(-c2cccs2)nn(CCNS(=O)(=O)c2ccccc2Cl)c1=O | 3 | 2
COc1ccc(Nc2nccc3[nH]c(-c4cccc(C)c4)nc23)cc1OC | -6 | -12
CO[C@H]1CN(Cc2cnn(-c3ccc(C)c(C)c3)c2)CC[C@H]1N | 9 | 6
CCn1cc(NC(=O)c2cccc(CN3CC[C@@H]4CCCC[C@H]4C3)c2)nn1 | -11 | -11
CC(c1ccc(Cl)cc1Cl)N(C)C(=O)NCC1CC1 (configuration not stated) | 5 | 2
COc1ccc(C(=O)N2CCC(C(NC(=O)c3ccccc3C)C(=O)NC(C)C(C)C)CC2)cc1 (configuration not stated) | -8 | -6
COCCCNC(=O)c1nn(-c2ccc(C)c(F)c2)c(=O)n(C(C)c2ccccc2)c1=O (configuration not stated) | -2 | 1
CC(OCc1ccccc1)C(=O)Nc1cc2c(cc1Cl)OCCO2 (configuration not stated) | -1 | -3
CCCCc1ccc(N2CC(C)Cn3c2nc2c3c(=O)n(CC(=O)OC)c(=O)n2C)cc1 (configuration not stated) | 1 | -1
COCCNC(=O)CSc1nc(NC(C)=O)c(NC(=O)c2cccs2)c(=O)[nH]1 | -4 | -2
C=c1ccccc1=C1C=NNC(=NC(C)Cc2ncccc2C)N1 (configuration not stated) | -5 | -7
C=CCn1c(C)cn2c3c(=O)n(CCC(C)C)c(=O)n(C)c3nc12 | 4 | 3
COc1ccc(/C=C/C(=O)NCCC(=O)Nc2ccc(CC#N)cc2)cc1 | 9 | 6
CSc1ccc(C(=O)NC(C)c2cnn(-c3ccccn3)c2C)cc1 (configuration not stated) | 15 | 11
COc1cccc(N2CCN(C(=O)c3ccc(C(F)(F)F)cc3)C(C)C2=O)c1 (configuration not stated) | 11 | 9
N#Cc1cccc(S(=O)(=O)N(Cc2nnc(-c3ccccc3Cl)o2)C2CC2)c1 | 4 | 5
CCn1c(Nc2ccc(OC)cc2)nc2ccccc21 | -6 | -10
O=C(NC1CC1)c1csc(Nc2ccc(OC(F)F)cc2)n1 | 5 | 0
COc1ccc(-c2nc(C(N)=O)c3[nH]c(=O)n(-c4cccc(C)c4)c3n2)cc1O | 3 | 10
O=C(c1ccc(Nc2cccc(C(F)(F)F)c2)nc1)N1CCC(O)(Cc2ccccc2)CC1 | -7 | -14
O=C(NCc1nc2ccccc2n1CC1CCCCC1)c1ccco1 | -2 | -2
O=C(c1cn(-c2ccccc2)nn1)N1CCN(C(=O)N2CCOCC2)CC1 | -2 | -3
Cc1ccc(S(=O)(=O)Oc2ccc(=O)[nH]n2)cc1 | 2 | 2
CN(C)c1cccc(COC(=O)c2ccc(CS(C)(=O)=O)cc2)c1 | 11 | 10
CCCCn1c(-c2cc(OC)c(OC)c(OC)c2)nc2c(c(=O)c3ccccc3n2C)c1=O | 5 | 4
CC(C)(C)OC(=O)N(CC1CC1)C1CCN(C(=O)c2ccc3c(c2)NC(=O)CS3)CC1 | -2 | 14
CCOC(=O)c1cc(-c2ccc(N3CCN(C(=O)c4cc(F)cc(F)c4F)CC3)cc2)n(-c2ccccn2)n1 | 6 | 1
Cc1ccc(NC(=O)N2CCN(c3ccc(Cl)cc3)C(=O)C2C)cc1 (configuration not stated) | 2 | 7
CCOC(=O)C1CCN(CC(=O)N2N=C(c3ccc(C)cc3C)CC2c2cccc(OC)c2)CC1 (configuration not stated) | -6 | -3
Cc1nc(N(C)C)nc(N2CCC3(CCC(=O)N(C)CC3)CC2)c1C | 1 | 1
CCc1ccc(-c2cc(C(=O)N3[C@@H]4CC[C@H]3CNC(=O)C4)[nH]n2)cc1 | 7 | 0
COC(=O)c1ccc(CSc2n[nH]c(=S)s2)o1 | -3 | -5
CCN1C(=O)N(CCCc2cccnc2)C(=O)C12CCN(Cc1ccc3c(c1)OCCO3)CC2 | 16 | -1
CC(=O)Nc1ccc(CN(C)c2c(C)nc3ccc(C(=O)NCCCN4CCCC4=O)cn23)cc1 | -4 | -9
O=C(Nc1ccc(SC2CCCC2)cc1)c1ccc(=O)[nH]c1 | 7 | 4
COc1cc(C)c(CN(C)C(=O)CCl)cc1OC | -2&-2 | -1&-5
CCOc1nn(CC)cc1C(=O)N1CCCC1 | 0 | -2
O=C(c1cc(Cn2ccc3ccccc32)[nH]n1)N1CCCC1c1nccs1 (configuration not stated) | 0 | -1
CCc1nsc(N2CCCN(C(=O)C3CCC(CC)O3)CC2)n1 (configuration not stated) | 2 | 1
COc1cc2c(cc1-c1nccn1CCN1CCNC1=O)OCCCO2 | -2 | -6
O=C(Nc1ccc2[nH]ncc2c1)c1cccc(CN2[C@@H]3CC[C@H]2CC(O)C3)c1 (some centres not stated) | 17 | 14
COc1cccc(CSc2nnc(CNC(=O)Nc3ccc(OC)cc3OC)n2-c2cc(Cl)ccc2Cl)c1 | 14 | 10
The list goes on:
SMILES | NPYLR7 ag | NPYLR7 ag max-min
CCOC(=O)c1cccnc1/C=C/c1cccc(C(F)(F)F)c1 | 0 | 1
CC(C)CCN1CCN(c2nc3c(c(=O)[nH]c(=O)n3C)n2CCc2ccccc2)CC1 | 12 | 6
C=C1C2(C(=O)N3CCC(c4cccc(OC)c4OC)C3)CCC(C2)C1(C)C (configuration not stated) | 7 | 4
Fc1cnc(N2CCOCC2)nc1N1CCOCC1 | 6 | 0
CC(NC(=O)C(C)(C)c1ccccc1)C12CC3CC(CC(C3)C1)C2 (configuration not stated) | -3 | -3
CCCCc1ccc(C(=O)N(Cc2cccc(OS(=O)(=O)c3cccc(C(F)(F)F)c3)c2)CC(C)C)cc1 | 29 | 22
O=C(c1csc2c1CCCC2)N1CCOCC1 | 0&7 | -2&6
Cc1ccc(N2C(=O)C(c3c(C)[nH]n(-c4ccc(Cl)cc4)c3=O)=C([n+]3cccc(C)c3)C2=O)cc1 | -10 | -7
CC(C)C(=O)Nc1sc2c(c1-c1nc3ccccc3s1)CCN(C(C)C)C2 | 66* | 62*
CCCCC1CCC(c2noc(-c3ccccc3Cl)n2)CC1 (configuration not stated) | -3 | -4
CC(=O)Nc1ccc(Nc2c(C(=O)N3CCCCC3C)cnc3nc(C)ccc23)cc1 (configuration not stated) | 4 | 1
O=C(CCl)Nc1nnc(SCC(=O)c2ccc(F)cc2)s1 | -1 | 12
CCCCCn1c(=O)c2c(nc3n2CCN3c2cc(C)cc(C)c2)n(C)c1=O | 140* | 124*
O=C(c1ccc([N+](=O)[O-])o1)N1CCN(Cc2ccccc2)CC1 | 21 | 11
C=CCCC(O)(CCC=C)c1ccc(CN(Cc2sccc2C)C2CC2)o1 | -2 | 2
Cc1cc(C)n(-c2ccc(NC(=O)C3CCCCN3C(=O)c3cscn3)cc2)n1 (configuration not stated) | 10 | 8
C=C(C)COc1ccc(-c2[nH]ncc2-c2ccc(OC)cc2)c(O)c1 | 1 | -1
COc1ccc(C[C@H](NC(=O)[C@H](C)NC(=O)CN2CCOCC2)C(=O)N[C@@H](Cc2ccccc2)C(=O)[C@]2(C)CO2)cc1 | -6 | -8
Cc1ccccc1-c1cccc(C(=O)N2CCCC(c3ccn[nH]3)C2)c1 (configuration not stated) | 1 | 0
CCc1nnc(CN(CC)C(=O)c2cccc3ccnn23)o1 | 8 | 6

Record cards, from the list above. Order of screens: NPYLR7 ag | NPYLR7 ag max-min
C=C(C)CN=c1scc(C)n1N=Cc1sccc1C as listed: -9 | -12
CCc1nnc(CN(CC)C(=O)c2cccc3ccnn23)o1 as listed: 8 | 6

Additional results follow:
SMILES | NPYLR7 ag | NPYLR7 ag max-min
CCSc1nc2c([nH]1)c(=N)ncn2Cc1ccccc1 | 6 | 3
O=C(CCn1nnc(-c2ccc(Cl)cc2)n1)Nc1cccc(F)c1 | 6 | 5
CN1CCCC2(CCN(Cc3ccccc3Cn3cccn3)C2)C1=O (configuration not stated) | 5 | 2
O=C(Cn1cc(S(=O)(=O)Cc2ccccc2F)c2ccccc21)Nc1ccccn1 | 9 | 3
O=C(NCc1cccs1)Nc1ccc2c(c1)C(=O)N1CCCCC1CCO2 (configuration not stated) | 1 | 0
CC(C)(C)NC(=O)N(Cc1ccco1)Cc1nccn1Cc1cccc(Cl)c1 | -2 | 5
CCCN(CC1CC1)CN1C(=O)NC2(CCC(C)CC2)C1=O (configuration not stated) | -1 | 0
O=S(=O)(Oc1ccccc1CNCc1ccco1)c1ccc(F)cc1 | 10 | 13
COC(=O)c1c(NC(=O)CC2Nc3ccccc3NC2=O)sc2c1CCC(C(C)(C)C)C2 (configuration not stated) | -7 | -11
CCOc1ncccc1-c1cncc(C(=O)N2CCOCC2)n1 | 13 | 8
O=C(CN1CCc2sccc2C1c1cccc(F)c1)N1CCCN(S(=O)(=O)Cc2ccccc2)CC1 (configuration not stated) | 11 | 0

Structures listed so far containing a CF3 group:
SMILES | NPYLR7 ag | NPYLR7 ag max-min
CCOC(=O)C(c1ccc(OC)c(OC)c1)C1C=CC(NC(=O)c2ccc(F)cc2C(F)(F)F)C1 (configuration not stated) | -4 | -17
Cc1ccc(N2C(=O)CC(NCc3cccc(C(F)(F)F)c3)C2=O)cc1 (configuration not stated) | -3 | -11
O=C(O)c1csc(-c2cccc(C(F)(F)F)c2)n1 | 5 | 3
Cn1cc(CN2CCCC(CCc3ccccc3C(F)(F)F)C2)cn1 (configuration not stated) | 13 | 12
CCOC(=O)c1c[nH]c2ccc(C(F)(F)F)cc2c1=O | 19 | 13
COc1cccc(N2CCN(C(=O)c3ccc(C(F)(F)F)cc3)C(C)C2=O)c1 (configuration not stated) | 11 | 9
O=C(c1ccc(Nc2cccc(C(F)(F)F)c2)nc1)N1CCC(O)(Cc2ccccc2)CC1 | -7 | -14
CCOC(=O)c1cccnc1/C=C/c1cccc(C(F)(F)F)c1 | 0 | 1
CCCCc1ccc(C(=O)N(Cc2cccc(OS(=O)(=O)c3cccc(C(F)(F)F)c3)c2)CC(C)C)cc1 | 29 | 22
